Screening results from PubChem BioAssay.
RN4220 kill: S. aureus RN4220 growth inhibition; inhibition, % (concentration not given with the values); OD600, 16 h; 330,000 compounds, 0.33% hits; AID 1259311;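 active = z-score of -3 or lower and OD600 up to 0.18 on both plates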;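 also: plate controls were untreated cells for no effect and reference antibiotic for full effect; stock transfer was 100 nL into about 80 µL; one replicate is shown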
BJeLR lethal: kills HRASV12-expressing BJeLR cells; BJeLR (HRASV12) viability, CellTiter-Glo ATP luminescence, 48 h; reference of the scale not given here; inhibition, % (concentration not given with the values); 300,000 compounds, 0.17% hits; AID 1554;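 active = replicate mean above 50%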;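 also: 50 nL library stock added to about 25 µL; numbers are from one replicate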
ugtP null kill: kills S. aureus RN4220 lacking UgtP | S. aureus RN4220 ugtP deletion, OD600 growth, 16 h; some inactives read as strong as hits | growth inhibition, % (test concentration not listed) | 330,000 compounds, 0.54% hits | AID 1259309;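 active = z-score under -3 and OD600 up to 0.15 on both plates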;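 also: plate controls were untreated wells for no effect and antibiotic for full effect; wells of about 80 µL received 100 nL stock; the first replicate is given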
Mtb hypoxia inh: Mtb hypoxia fluorescent reporter inhibition | M. tuberculosis hypoxia-regulated fluorescent reporter, fluorescence | fluorescence inhibition, % (no concentration beside the values) | 300,000 compounds, 0.1% hits | AID 1159583;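 active = 35 to 45% if threefold the growth effect, above 45% if 1.5-fold the growth effect; inactive = the rest, general growth blockers included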;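 also: wells of about 50 µL received 100 nL stock; 0% = vehicle wells and 100% = reference inhibitor wells; whole bacteria with a GFP reporter of the hypoxia response; strong numbers were not always called active; many hits fall short of the cut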
PrP 5UTR inh: suppresses PrP 5' UTR mRNA reporter expression; cell-based PrP 5' UTR mRNA reporter, plate reader; 340,000 compounds, 0.35% hits; inhibition, % (test concentration not listed);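 active = every replicate at 50% or more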;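 also: 0 = median of the neutral control wells; tested in H4 reporter cells; numbers are from one replicate; inactives centre near -14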
Bead autofluor: compound fluorescence in toxin protease inhibitor counterscreen; AID 624483; compound autofluorescence counterscreen, microsphere flow cytometry; stronger effect = higher value; fluorescence intensity (concentration not given with the values); 360,000 compounds, 3.1% hits;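 active = at least 3 SD above the mean of all compounds, about 16000 in these data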;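 also: 100 nL of 1 mM stock went into each well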
Mtb hypoxia inh growth: recorded beside Mtb hypoxia inh, whose call it bears; growth inhibition, %; measured here: M. tuberculosis growth (absorbance);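 0% = vehicle and 100% = reference antibiotic; read after six days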
Active calls of the source: *; / = no result given; & = joins results of further samples.

The line under a structure holds: BJeLR lethal	Mtb hypoxia inh growth	Bead autofluor	Mtb hypoxia inh	PrP 5UTR inh	RN4220 kill	ugtP null kill
CC1CCN(CC(=O)N2CC(=O)Nc3ccccc32)CC1
→ -4	-3	22135*	-13	-2	-0.1	1
CC(C(N)=O)N1C(=O)NC2(CCCc3ccccc32)C1=O (centres undefined)
→ 0	7	3797	7	-23	1.6	-2
COc1ccc([N+](=O)[O-])cc1NC(=O)COC(=O)c1ccccc1O
→ -1	6	3399	16	-9	-1.4	3
COc1ccc(CCNc2nc(=O)[nH]nc2C)cc1OC
→ 1	10	10805	8	-19	-1.3	0
CCC(Sc1nc2sc(C(=O)OC)c(C)c2c(=O)n1N)C(=O)N(CC)CC (centres undefined)
→ 0	-3	21202*	-12	-2	6.5	-19
O=C(Nc1ccc(F)cc1)c1nc[nH]c1C(=O)Nc1ccccc1[N+](=O)[O-]
→ -14	2	8605	3	-13	-1.8	-12
O=c1oc(Nc2ccccc2F)nc2ccccc12
→ -12	11	3163	10	-5	-1.7	-4
COc1ccc(C2=CC(=O)CC(c3ccc(F)cc3)C2)c(OC)c1 (centres undefined)
→ /	8	/	21	/	4.8	11
CCOC(=O)c1c(NC(=O)Cc2cccs2)sc(C(=O)N2CCCCC2)c1C
→ 0	11	3330	9	-3	1.0	-4
C/C(=C1\SC(N2CCOCC2)=NC1=O)c1ccc(C)cc1
→ 11	/	2387	/	-10	1.0	-8
COC(=O)C1=C(c2cccc(OCc3ccccc3)c2)CC2CCC1N2C(=O)NCc1ccc(OC)cc1 (centres undefined)
→ /	-7	/	4	/	-10	7
C/C(=C\c1ccccc1)C(=O)Nc1ccc(S(=O)(=O)Nc2ncccn2)cc1
→ 5	/	4485	/	-23	-1.0	16
CC(C)OC(=O)c1cc(-c2ccc(C=O)o2)ccc1Cl
→ 3	-1	2710	2	-14	3.5	-3
O=C(CN1C(=O)NC2(CCc3ccccc32)C1=O)NCc1ccc(Cl)cc1 (centres undefined)
→ /	-2	2962	8	0	8.0	-1
COc1ccccc1CNC(=O)COC(=O)Cc1ccc(Br)cc1
→ /	-1	2955	-4	-34	4.8	4

Single records (already shown).
Results for COc1ccccc1CNC(=O)COC(=O)Cc1ccc(Br)cc1 : BJeLR lethal = /; Mtb hypoxia inh growth = -1; Bead autofluor = 2955; Mtb hypoxia inh = -4; PrP 5UTR inh = -34; RN4220 kill = 4.8; ugtP null kill = 4
Results for CCC(Sc1nc2sc(C(=O)OC)c(C)c2c(=O)n1N)C(=O)N(CC)CC (centres undefined) : BJeLR lethal = 0; Mtb hypoxia inh growth = -3; Bead autofluor = 21202*; Mtb hypoxia inh = -12; PrP 5UTR inh = -2; RN4220 kill = 6.5; ugtP null kill = -19

Following part:
The line under a structure holds: BJeLR lethal	Mtb hypoxia inh growth	Bead autofluor	Mtb hypoxia inh	PrP 5UTR inh	RN4220 kill	ugtP null kill
c1ccc2c(c1)CCN(c1nc(CN3CCOCC3)nc3sc4c(c13)CCCC4)C2
→ -4	3	3248	9	-1	5.7	1
O=C(/C=C/c1cccc([N+](=O)[O-])c1)NCCN1C(=O)S/C(=C\c2cccnc2)C1=O
→ 2	9	4255	-7	-17	0.4	-7
O=C(CCN1CCc2ccccc2C(c2ccccc2)C1)c1ccc2c(c1)OCCO2 (centres undefined)
→ 8	/	2434	/	-14	1.3	-2
CC(C)CCN1C(=O)CC(NNC(=O)c2ccc(S(=O)(=O)N3CCCC3)cc2)C1=O (centres undefined)
→ 6	6	6049	8	-6	5.4	11
Cc1ccc(C(=O)C(OC(=O)c2c(C)cc(=O)oc2C)c2ccccc2)cc1 (centres undefined)
→ 12	5	2482	-1	-11	-6.1	0
CN(Cc1ccccc1)C(=O)c1ccc(NC(=O)Cc2ccc(NC(=O)C3CCCN(C(=O)CCc4ccccc4)C3)cc2)cc1 (centres undefined)
→ /	2	3745	-8	-14	4.1	-5
CCc1[nH]nc2c1C1(CCOC1C)C(C#N)=C(N)O2 (centres undefined)
→ 6	5	4414	1	-15	-0.6	1
CCOc1ccc(OCC)c(NC(=O)C2CCCN(C(=O)c3ccc(Cl)cc3)C2)c1 (centres undefined)
→ /	3	4136	7	-12	2.8	5
CCCCC(=O)NN=Cc1ccc(-c2ccc([N+](=O)[O-])cc2)o1
→ /	2	/	8	/	-2.0	2
Cc1ccc(NC(=O)CCc2nnc3ccc(N4CCOCC4)nn23)cc1C
→ -6	/	4454	/	1	1.0	4
COc1ccc(CNC(=O)c2ccc(CS(=O)(=O)c3ccc(Br)cc3)o2)cc1
→ -5	/	5540	/	-8	-4.3	11
CCc1c(C)nc(SCC(=O)N2CCCCC2CC)[nH]c1=O (centres undefined)
→ 3	5	4264	11	-23	4.6	0
CCOC(=O)c1c(S(=O)(=O)NCCc2ccc(OC)c(OC)c2)c(C)n(C)c1C
→ -2	-11	4463	-4	4	-0.6	2
CN1C(=O)c2ccc(Oc3ccccc3)cc2C1=O
→ -1	-2	4249	11	-11	5.2	7
COc1ccc(CCC(=O)NN=Cc2ccc3c(c2)OCO3)cc1
→ /	6	/	-1	/	0.5	-1
O=C(NCc1ccc(Cl)cc1)C1CCN(S(=O)(=O)N2CCOCC2)CC1
→ 6	3	7116	9	-21	-0.5	-1
CN(C)/C=C(\C=O)c1cccc(Cl)c1
→ -1	3	2482	-9	-17	1.3	5
CC(C)CN(CCCNC(=O)CN1C(=O)COc2ccc(S(=O)(=O)N3CCCCCC3)cc21)CC(C)C
→ -18	14	5946	11	-8	2.1	3
CCCCc1cc(C(=O)Cc2ccccn2)c(O)cc1O
→ -9	9	3621	5	-13	3.1	-2
CS(=O)(=O)Cc1ccc(C(=O)NC(c2ccccc2)c2ccccc2)cc1
→ -2	-4	3373	4	-25	-1.1	13
CC(C)OC(=O)CC12CN3CC(CC(=O)OC(C)C)(CN(C1)C(=O)c1ccccc1C3=O)C2=O
→ -8	4	2328	5	-6	4.8	0
CCCC(=O)Nc1ccc2nc(SCC(=O)Nc3ccc(N4CCOCC4)c(Cl)c3)sc2c1
→ 5	-11	3181	-10	-53	6.2	-14
CCC(C)(C)n1nnnc1C(c1ccc(OC)c(OC)c1)N1CCN(c2ccc(OC)cc2)CC1 (centres undefined)
→ -9	/	2628	/	-11	-1.0	2
CCCn1c(CCC(=O)Nc2ccccc2Cc2ccccc2)nc2cc(S(=O)(=O)N3CCOCC3)ccc21
→ 3	/	2531	/	-9	-0.4	-5
O=C(Cn1cc(C(=O)c2ccccc2F)c2ccccc21)NC1CC1
→ -4	0	4146	9	-13	1.9	4
CCSc1nnc(-c2ccc(S(=O)(=O)NCc3cccs3)cc2)o1
→ /	12	20964*	5	-20	10.0	-1
COC1OCC(O)C(OC(=O)c2ccccc2)C1OC(=O)c1ccccc1 (centres undefined)
→ /	12	3529	19	-15	0.4	0
CCOc1cc(C=O)cc(N=Nc2cccc([N+](=O)[O-])c2)c1O
→ 4	11	3657	15	-14	0.9	5
O=C(Nc1ccc(Cl)c(S(=O)(=O)N2CCOCC2)c1)c1ccc2c(c1)OCCO2
→ /	12	4017	5	-26	-14	-5
COc1ccccc1OCCCOc1c(Cl)cc(C)cc1Cl
→ -5	/	1925	/	-16	/	/
CCC(c1nnnn1Cc1ccco1)N(Cc1ccccc1OC)Cc1cc2cc(C)ccc2[nH]c1=O (centres undefined)
→ 12	/	4878	/	-4	5.4	1
CN(C)c1ccc(C(=O)N2CC(=O)N(CCc3ccccc3)C(=O)C2)cc1
→ 0	/	2714	/	-10	-1.7	0
COc1cc(NC(=O)COC(=O)c2cnccn2)c(C)cc1[N+](=O)[O-]
→ -6	-5	7181	6	-11	-1.6	-5
Cc1n[nH]c(=O)n1-c1ccc(Oc2ccccc2)cc1
→ 7	0	9862	-8	-12	1.4	0
CNC(=O)c1nnc(Cc2ccc(Cl)cc2)o1
→ -7	5	4902	8	-32	6.7	-9
Cc1ccc(CNC(=O)CSc2nc3ccccc3c(=O)n2CC2CCCO2)cc1 (centres undefined)
→ /	-5	6188	2	-7	1.3	3
CCCOC(=O)C1=C(C)N(C)C(=O)NC1c1cc2c(cc1Br)OCO2 (centres undefined)
→ 6	-6	3926	6	-12	-4.7	-9
CCCCN1C(=S)SC(C)(C)C1/[N+]([O-])=C/c1cccnc1 (centres undefined)
→ -1	/	4557	/	-20	1.4	4
CCOC(=O)CSc1nnc(CCc2nc3ccccc3[nH]2)n1C
→ -12	-4	3381	-2	-10	3.6	4
CCCn1c(=O)c(C(=O)Nc2cccc(C)c2)c(O)c2ccccc21
→ -1	-8	2759	5	-20	6.9	84*
CC(C)(C(=O)N[C@H](CO)c1ccccc1)C(=O)N[C@H](CO)c1ccccc1
→ -3	/	3539	/	-13	/	/
Clc1cccc(-c2nnc3n2CCCCC3)c1
→ -11	6	3251	13	-8	3.5	0
CCOC(=O)c1c[nH]c2ccc3ccccc3c2c1=O
→ 3	3	3765	0	-21	10	-3
CCN(CC)S(=O)(=O)c1cccc(-c2nnc(SCCCC(=O)c3ccc(F)cc3)o2)c1
→ 0	9	5485	19	-12	2.7	-8
Cc1ccc(-n2c(COc3cccc(C)c3)n[nH]c2=S)cc1
→ -4	7	4264	12	42	11	3
COCCN(CCOC)Cc1c(C)[nH]c2c(C)c(C)ccc2c1=O
→ 4	6	9696	-3	-4	0.1	-4
c1ccc(NC2=NCCN2CC2CCCC2)cc1
→ 13	4	4056	6	5	4.6	3
CN(C)c1ccc(CNC(=O)CCS(=O)(=O)c2ccc3c(c2)n(C)c(=O)c(=O)n3C)cc1
→ -12	/	6767	/	-7	/	/
CCN(CC)S(=O)(=O)c1ccc2[nH]cc(C(=O)NC3CC3)c(=O)c2c1
→ 3	13	4043	15	-16	7.5	3
COc1ccc(-n2c(SCC(=O)Nc3ccccc3)nnc2-c2ccc(NS(=O)(=O)c3ccc(C)cc3)cc2)cc1
→ 17	-1	3867	-10	-20	12	-35
Cc1ccc(C2(c3ccccc3)NC(=O)N(CC(=O)NC3CCCCC3)C2=O)cc1C (centres undefined)
→ /	-3	5898	-3	-11	0.3	6
Cc1ccc(C)c(-c2cc(C(=O)N/N=C/c3cccnc3)c3ccccc3n2)c1
→ -15	/	4872	/	-11	/	/
COC(=O)NN=Cc1cc(N=Nc2ccccc2)ccc1O
→ /	5	/	5	/	3.7	7
CCC(NC(=O)c1cccc(Cn2cc([N+](=O)[O-])cn2)c1)c1ccc(C(C)C)cc1 (centres undefined)
→ 7	-1	10294	-2	-8	-1.6	4
Cc1ccc(CNC(=O)CCn2ccc3cc(S(=O)(=O)N4CCCC4)ccc32)cc1
→ -3	6	5444	10	-14	3.6	10
O=C(NC1=NCCS1)c1cccc(NC(=O)c2ccco2)c1
→ 6	5	3148	4	8	4.8	7
COc1ccc(OC)c(S(=O)(=O)Nc2c(F)cccc2F)c1
→ -7	2	6521	6	-7	5.2	5
O=C(CNS(=O)(=O)c1ccccc1)N1CCCC1
→ 1	6	4571	12	-15	4.8	8
CCOC1OC(C(=O)NCc2ccccc2)=CC(c2ccccc2)C1CCCO (centres undefined)
→ /	-4&1	/	2&3	/	3.0&7.5	-2&3
O=c1[nH]c(-c2ccccc2Cl)nc2c1sc(=S)n2-c1ccccc1
→ 3	5	4138	6	3	21	28

Next records.
The line under a structure holds: BJeLR lethal	Mtb hypoxia inh growth	Bead autofluor	Mtb hypoxia inh	PrP 5UTR inh	RN4220 kill	ugtP null kill
C/C=C/COc1nc2c(c(=O)n(C)c(=O)n2C)n1C
→ -7	12	3674	16	-6	1.4	-1
CCC(CO)n1c(SCc2cc(=O)oc3cc(C)ccc23)nc2ccccc2c1=O (centres undefined)
→ 3	4	3157	-1	-8	9.7	5
CC(=O)OC(C(=O)NC1CCCCC1)c1ccc(Cl)c(Cl)c1 (centres undefined)
→ 2	5	4408	-2	5	-0.1	-8
CCn1c(NCc2ccc(OC)cc2)nc2ccccc21
→ 1	8	3626	17	-13	-3.3	3
N#Cc1ccc(NC(=O)CSc2cn[nH]n2)cc1
→ 8	8	4588	2	-18	1.1	1
O=C(NN1C(=O)c2ccccc2C1=O)c1ccncc1
→ -6	9	3383	3	0	-1.4	1
CC(=O)N1CCC2(CC1)CC(=O)c1cc(OCC(=O)N3CCCC3)ccc1O2
→ 8	/	3581	/	-9	/	/
O=C(CCC(=O)N/N=C/c1c[nH]c2ccccc12)NCc1ccccc1
→ -6	/	2477	/	-15	/	/
